FGF22 binding: binders of recombinant human FGF22 by thermal shift | Q9HCT0 | SYPRO orange fluorescence; percent of sucrose octasulfate shift, DMSO zero | calls only at 9.99 µM | hit rate 1.5% among 340,000 | AID 651658;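 active = melting point raised past a set limit in the mean and every replicate; three in four hits are not shown here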
Target sequence (Q9HCT0 whole entry, looked up): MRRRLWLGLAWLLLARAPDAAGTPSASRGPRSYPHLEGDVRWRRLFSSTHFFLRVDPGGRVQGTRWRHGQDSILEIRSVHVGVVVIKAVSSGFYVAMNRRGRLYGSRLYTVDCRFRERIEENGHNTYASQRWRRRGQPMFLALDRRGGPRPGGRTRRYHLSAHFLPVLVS
Calls only.

What do the screens show for `CCOc1cc(OCC)cc(C(=O)N2CCC[C@@H]2C(=O)N2CCC[C@@H]2C(=O)NCc2cccc(OC)c2)c1`?
FGF22 binding: inactive

Results for O=C(NC[C@H]1[C@H](c2ccccc2)[C@@H](CO)N1Cc1ccccn1)C1CC1 ?
FGF22 binding: inactive

What do the screens show for `CC(C)CC#Cc1ccc2c(c1)O[C@@H](CN(C)C(=O)Cc1ccccc1)[C@@H](C)CN([C@H](C)CO)S2(=O)=O`?
FGF22 binding: inactive

How did C[C@@H]1CN([C@H](C)CO)C(=O)c2cc(NC(=O)CCCN(C)C)ccc2O[C@@H](C)CCCCO[C@@H]1CN(C)S(=O)(=O)c1cccs1 do in these assays?
FGF22 binding: inactive

Results for CO[C@H]1CN(C)C(=O)c2cc(NC(=O)C3CCCCC3)ccc2OC[C@@H](C)N(C)C[C@H]1C ?
FGF22 binding: inactive

Results for CCC(=O)Nc1ccc2c(c1)OC[C@H](C)N(C(=O)CC1CC1)C[C@H](C)[C@H](OC)CN(C)C2=O ?
FGF22 binding: inactive

Results for C[C@@H]1CN([C@@H](C)CO)C(=O)c2cc(C3=CCCCC3)cnc2O[C@@H]1CN(C)Cc1ccc(C(=O)O)cc1 ?
FGF22 binding: inactive

What do the screens show for `CO[C@@H]1CN(C)C(=O)c2cc(NC(C)=O)ccc2OC[C@@H](C)N(C(=O)C2CCC2)C[C@H]1C`?
FGF22 binding: inactive

Results for O=S(=O)(c1ccc(F)cc1)N1CC[C@@H]2[C@@H](CO)Nc3ccc(-c4ccccc4F)cc3[C@@H]21 ?
FGF22 binding: inactive

Results for C[C@H](CO)N1C[C@H](C)[C@H](CN(C)S(=O)(=O)c2cccs2)Oc2ccc(NC(=O)Nc3cccc4ccccc34)cc2C1=O ?
FGF22 binding: inactive

How did C[C@@H]1CN([C@H](C)CO)C(=O)c2cccc(NC(=O)Nc3ccc4c(c3)OCO4)c2O[C@@H]1CN(C)S(=O)(=O)c1cccs1 do in these assays?
FGF22 binding: inactive

Results for COCC(=O)N1CCC2(CC1)CN(C(=O)Cc1ccccc1)[C@H](CO)c1c2c2ccc(OC)cc2n1C ?
FGF22 binding: inactive

Gathered by group, those above containing two or more sulfur atoms.
How did C[C@@H]1CN([C@H](C)CO)C(=O)c2cc(NC(=O)CCCN(C)C)ccc2O[C@@H](C)CCCCO[C@@H]1CN(C)S(=O)(=O)c1cccs1 do in these assays?
FGF22 binding: inactive

Results for C[C@H](CO)N1C[C@H](C)[C@H](CN(C)S(=O)(=O)c2cccs2)Oc2ccc(NC(=O)Nc3cccc4ccccc34)cc2C1=O ?
FGF22 binding: inactive

How did C[C@@H]1CN([C@H](C)CO)C(=O)c2cccc(NC(=O)Nc3ccc4c(c3)OCO4)c2O[C@@H]1CN(C)S(=O)(=O)c1cccs1 do in these assays?
FGF22 binding: inactive

An excerpt from above in order of length of the SMILES, highest first.
What do the screens show for `CCOc1cc(OCC)cc(C(=O)N2CCC[C@@H]2C(=O)N2CCC[C@@H]2C(=O)NCc2cccc(OC)c2)c1`?
FGF22 binding: inactive

Results for CCC(=O)Nc1ccc2c(c1)OC[C@H](C)N(C(=O)CC1CC1)C[C@H](C)[C@H](OC)CN(C)C2=O ?
FGF22 binding: inactive

Results for COCC(=O)N1CCC2(CC1)CN(C(=O)Cc1ccccc1)[C@H](CO)c1c2c2ccc(OC)cc2n1C ?
FGF22 binding: inactive

Further entries follow.
Results for C[C@@H]1CN([C@H](C)CO)C(=O)Cc2cc(NS(C)(=O)=O)ccc2O[C@H]1CN(C)C(=O)Nc1ccc2c(c1)OCO2 ?
FGF22 binding: inactive

How did N#C[C@@H]1[C@H](c2ccc(C3=CCCCC3)cc2)[C@H](CO)N1S(=O)(=O)c1cccc(F)c1 do in these assays?
FGF22 binding: inactive

How did C[C@H]1CN([C@@H](C)CO)C(=O)Cc2cc(NC(=O)NC3CCCCC3)ccc2O[C@H]1CN(C)Cc1ccc(-c2ccccc2)cc1 do in these assays?
FGF22 binding: inactive

How did C[C@@H]1CN([C@H](C)CO)C(=O)c2cc(NC(=O)CCN3CCOCC3)ccc2O[C@H]1CN(C)C(=O)Nc1ccc(C(F)(F)F)cc1 do in these assays?
FGF22 binding: inactive

Results for O=C(C[C@H]1CC[C@@H]2[C@H](COC[C@@H](O)CN2C(=O)Nc2cc(Cl)cc(Cl)c2)O1)N1CCCCC1 ?
FGF22 binding: inactive

Results for COc1ccc(NC(=O)Nc2ccc3c(c2)CC(=O)N([C@H](C)CO)C[C@H](C)[C@H](CN(C)C(=O)Nc2ccc4c(c2)OCO4)O3)cc1 ?
FGF22 binding: inactive

How did COCC(=O)Nc1ccc2c(c1)C(=O)N(C)[C@H]1CC[C@H](CC(=O)O)O[C@H]1CO2 do in these assays?
FGF22 binding: inactive

What do the screens show for `C[C@H](CO)N1C[C@H](C)[C@@H](CN(C)Cc2ccc(F)cc2)Oc2ncc(-c3ccccc3F)cc2C1=O`?
FGF22 binding: inactive

How did C[C@H]1CN([C@@H](C)CO)C(=O)c2cc(NS(=O)(=O)c3ccccc3)ccc2O[C@H]1CN(C)Cc1ccncc1 do in these assays?
FGF22 binding: inactive

How did C/C=C/c1ccc([C@H]2[C@H](CO)N(C(=O)CN(C)C)C23CN(C(=O)C2CCOCC2)C3)cc1 do in these assays?
FGF22 binding: inactive

Results for C[C@@H]1CN([C@H](C)CO)C(=O)c2cccc(NC(=O)C3CC3)c2O[C@@H]1CN(C)CC1CCCCC1 ?
FGF22 binding: inactive

What do the screens show for `C[C@H]1CN([C@@H](C)CO)C(=O)c2cccc(N(C)C)c2O[C@H]1CN(C)C(=O)Nc1ccc(F)cc1`?
FGF22 binding: inactive

What do the screens show for `COCC(=O)Nc1ccc2c(c1)C(=O)N(C)C[C@@H](OC)[C@H](C)CN(CC1CC1)[C@H](C)CO2`?
FGF22 binding: inactive

What do the screens show for `C[C@@H]1CN([C@@H](C)CO)C(=O)c2cc(NS(=O)(=O)c3ccc(Cl)cc3)ccc2O[C@H]1CN(C)CC1CCCCC1`?
FGF22 binding: inactive

How did CCCN(C)C[C@H]1OCCCC[C@H](C)Oc2ccc(NS(=O)(=O)c3ccc(C)cc3)cc2C(=O)N([C@@H](C)CO)C[C@@H]1C do in these assays?
FGF22 binding: inactive

How did COc1ccc(CN(C)C[C@H]2OCCCC[C@@H](C)Oc3ccc(NC(=O)Nc4ccccc4)cc3C(=O)N([C@@H](C)CO)C[C@@H]2C)cc1 do in these assays?
FGF22 binding: inactive

Results for COCCNC(=O)C[C@H]1CC[C@@H]2[C@H](COc3ccc(NC(=O)C4CCCC4)cc3C(=O)N2C)O1 ?
FGF22 binding: inactive

Results for CC(C)NC(=O)Nc1ccc2c(c1)C(=O)N([C@H](C)CO)C[C@H](C)[C@@H](CN(C)C(=O)CCC(F)(F)F)OCCCC[C@@H](C)O2 ?
FGF22 binding: inactive

What do the screens show for `C[C@H](CO)N1C[C@H](C)[C@H](CN(C)C(=O)Nc2ccc(F)cc2)OCc2ccccc2-c2ccccc2C1=O`?
FGF22 binding: inactive

Results for O=C(O)C[C@H]1C[C@@H]2c3cc(NS(=O)(=O)c4ccccc4)ccc3O[C@@H]2[C@H](CO)O1 ?
FGF22 binding: inactive

Results for C[C@@H]1CCCCO[C@@H](CN(C)Cc2ccc(C(=O)O)cc2)[C@@H](C)CN([C@H](C)CO)C(=O)c2cc(NC(=O)NC3CCCCC3)ccc2O1 ?
FGF22 binding: inactive

What do the screens show for `COc1ccc(S(=O)(=O)N(C)C[C@H]2OCCCC[C@H](C)Oc3ccc(NC(=O)NC(C)C)cc3C(=O)N([C@H](C)CO)C[C@H]2C)cc1`?
FGF22 binding: inactive

What do the screens show for `CCc1csc(N2[C@@H](C#N)[C@@H](c3ccc(C4=CCCC4)cc3)[C@@H]2CO)n1`?
FGF22 binding: inactive

Results for COc1ccc(NC(=O)Nc2ccc3c(c2)CC(=O)N([C@H](C)CO)C[C@@H](C)[C@H](CN(C)CC2CCCCC2)O3)cc1 ?
FGF22 binding: inactive

What do the screens show for `C[C@@H]1CN([C@H](C)CO)C(=O)Cc2cc(NC(=O)Cc3cn(C)c4ccccc34)ccc2O[C@@H]1CN(C)C(=O)Nc1ccc(F)cc1`?
FGF22 binding: inactive

Results for CC(C)NC(=O)N[C@@H]1C=C[C@@H](CC(=O)N2CCCCC2)O[C@@H]1CO ?
FGF22 binding: inactive

What do the screens show for `C[C@H]1CN([C@@H](C)CO)S(=O)(=O)c2ccc(-c3cccc(C#N)c3)cc2O[C@H]1CN(C)C(=O)c1ccc(F)cc1`?
FGF22 binding: inactive

How did O=C(C(=O)N1CCC(CNC(=O)c2ccccc2F)CC1)c1cc2ccccc2o1 do in these assays?
FGF22 binding: inactive

How did COc1ccc(-c2ccccc2[C@@H]2[C@@H](C#N)N(C(=O)C3CCOCC3)[C@H]2CO)cc1 do in these assays?
FGF22 binding: inactive

How did CN1c2ccc(-c3cccc(C#N)c3)cc2[C@@H]2[C@@H](CCN2C(=O)Cc2ccccn2)[C@H]1CO do in these assays?
FGF22 binding: inactive

Results for CO[C@@H]1CN(C)C(=O)c2ccc(NS(=O)(=O)c3ccc(Oc4ccccc4)cc3)cc2OC[C@H](C)NC[C@H]1C ?
FGF22 binding: inactive

How did CN1c2ccc(-c3ccccc3)cc2[C@H]2[C@H](CCN2C(=O)c2ccncc2)[C@H]1CO do in these assays?
FGF22 binding: inactive

How did C=CCN1Cc2ccccc2[C@@H]2OC(c3ccc(OCCCO)cc3)=N[C@]2(CCS(=O)(=O)c2ccccc2)C1=O do in these assays?
FGF22 binding: inactive

Results for CC(C)C#Cc1ccc2c(c1)O[C@H](CN(C)Cc1ccncc1)[C@@H](C)CN([C@@H](C)CO)S2(=O)=O ?
FGF22 binding: inactive

What do the screens show for `CN1C(=O)c2cc(NC(=O)c3cccs3)ccc2OC[C@@H]2O[C@@H](CC(=O)N3CCOCC3)CC[C@@H]21`?
FGF22 binding: inactive

What do the screens show for `COc1ccc(S(=O)(=O)N(C)C[C@H]2OCCCC[C@@H](C)Oc3ccc(NS(=O)(=O)c4ccc(F)cc4)cc3C(=O)N([C@@H](C)CO)C[C@H]2C)cc1`?
FGF22 binding: inactive

Compounds shown so far that contain a COOH group:
Results for C[C@@H]1CN([C@@H](C)CO)C(=O)c2cc(C3=CCCCC3)cnc2O[C@@H]1CN(C)Cc1ccc(C(=O)O)cc1 ?
FGF22 binding: inactive

How did COCC(=O)Nc1ccc2c(c1)C(=O)N(C)[C@H]1CC[C@H](CC(=O)O)O[C@H]1CO2 do in these assays?
FGF22 binding: inactive

Results for O=C(O)C[C@H]1C[C@@H]2c3cc(NS(=O)(=O)c4ccccc4)ccc3O[C@@H]2[C@H](CO)O1 ?
FGF22 binding: inactive

Results for C[C@@H]1CCCCO[C@@H](CN(C)Cc2ccc(C(=O)O)cc2)[C@@H](C)CN([C@H](C)CO)C(=O)c2cc(NC(=O)NC3CCCCC3)ccc2O1 ?
FGF22 binding: inactive

(listing goes on)
What do the screens show for `CC(C)NC(=O)Nc1ccc2c(c1)C(=O)N([C@@H](C)CO)C[C@@H](C)[C@@H](CN(C)C(=O)NC1CCCCC1)OCCCC[C@@H](C)O2`?
FGF22 binding: inactive

How did Cc1cc(C)cc(NC(=O)Nc2ccc3c(c2)C(=O)N(C)[C@@H]2CC[C@H](CC(=O)O)O[C@@H]2CO3)c1 do in these assays?
FGF22 binding: inactive

How did CC(C)CC#Cc1cnc2c(c1)C(=O)N([C@@H](C)CO)C[C@H](C)[C@@H](CN(C)C(=O)CN1CCOCC1)O2 do in these assays?
FGF22 binding: inactive

Results for CCC(=O)N1CC(=O)N2[C@@H](CO)[C@H](c3ccc(C#CC4CCCCC4)cc3)[C@@H]2C1 ?
FGF22 binding: inactive

Results for CCCC(=O)N1CCC2(CC1)CN(C(C)=O)[C@H](CO)c1c2c2ccc(OC)cc2n1C ?
FGF22 binding: inactive

What do the screens show for `Cc1noc(C)c1NC(=O)N(C)C[C@@H]1OCCCC[C@@H](C)Oc2ccc(NC(=O)Cc3ccccc3)cc2C(=O)N([C@H](C)CO)C[C@@H]1C`?
FGF22 binding: inactive

How did C[C@@H](O)C#Cc1cnc2c(c1)C(=O)N([C@@H](C)CO)C[C@H](C)[C@@H](CN(C)C(=O)c1ccncc1)O2 do in these assays?
FGF22 binding: inactive

What do the screens show for `C[C@@H]1CCCCO[C@@H](CN(C)Cc2ccc(Cl)c(Cl)c2)[C@H](C)CN([C@@H](C)CO)C(=O)c2cc(NC(=O)Nc3ccccc3)ccc2O1`?
FGF22 binding: inactive

How did CCS(=O)(=O)NCC[C@H]1CC[C@@H](NS(=O)(=O)c2ccccc2C)[C@H](CO)O1 do in these assays?
FGF22 binding: inactive

What do the screens show for `Cc1ccccc1-c1ccc2c(c1)[C@@H]1C[C@H](N(C)S(=O)(=O)c3ccc(Cl)cc3)[C@H]([C@H](C)O)CN1CC2`?
FGF22 binding: inactive

What do the screens show for `CO[C@@H](CN(C)S(=O)(=O)c1cccc(Cl)c1)[C@@H](C)CN(C(=O)Nc1ccccc1F)[C@H](C)CO`?
FGF22 binding: inactive

Results for N#C[C@H]1[C@H](c2ccccc2)[C@@H](CO)N1S(=O)(=O)c1cccc(F)c1 ?
FGF22 binding: inactive

What do the screens show for `C[C@@H]1CN([C@H](C)CO)C(=O)c2cc(NC(=O)C3CC3)ccc2O[C@@H]1CN(C)Cc1ccc2c(c1)OCO2`?
FGF22 binding: inactive

How did COC(=O)C1=C(C)N(Cc2ccc(Cl)cc2)C(=S)NC1c1ccccc1 (stereo not drawn) do in these assays?
FGF22 binding: inactive

What do the screens show for `CS(=O)(=O)N1[C@@H]2Cn3c(ccc(-c4ccccc4)c3=O)[C@H]1[C@@H](C(=O)NCC1CC1)[C@@H]2CO`?
FGF22 binding: inactive

How did Cc1ccccc1-c1cnc2c(c1)C(=O)N([C@H](C)CO)C[C@H](C)[C@H](CN(C)CC1CCOCC1)O2 do in these assays?
FGF22 binding: inactive

Results for CC(C)NC(=O)N(C)C[C@@H]1OCCCC[C@@H](C)Oc2ccc(NS(=O)(=O)c3ccccc3)cc2C(=O)N([C@@H](C)CO)C[C@H]1C ?
FGF22 binding: inactive

Results for O=C(Nc1cccc(F)c1)N1C[C@H]2[C@@H](c3ccccc31)[C@@H](CO)N2C(=O)Cc1ccccn1 ?
FGF22 binding: inactive

Results for CO[C@@H](CN(C)S(=O)(=O)c1ccc(C)cc1)[C@H](C)CN([C@H](C)CO)S(=O)(=O)c1cccc(Cl)c1 ?
FGF22 binding: inactive

How did O=C(Nc1ccc2c(c1)[C@H]1C[C@H](CC(=O)N3CCc4ccccc4C3)O[C@H](CO)[C@H]1O2)Nc1ccccc1F do in these assays?
FGF22 binding: inactive

Compound activity from PubChem.

A portion of the library; rates above refer to the full screens.
